Assay outcomes deposited in PubChem BioAssay by ICCB-Longwood Screening Facility, Harvard Medical School.
KSHV LANA nucl – inhibitors of KSHV LANA-nucleosome binding, primary screen, biochemical, fluorescence polarization, FITC-LANA1-23, chicken nucleosomes; FITC-LANA1-23 / chicken nucleosome fluorescence polarization; active compounds read low; 0.3% of 51,000 active; z-score (concentration not given with the values);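 active means both repeat wells score below -2 in polarization z-score versus plate sample wells, excluding overly bright wells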;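 further: 100 nL library stock added to about 30 µL; numbers are from one replicate; some results filed as inactive read as strong as hits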
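Assay system: FITC-LANA peptide and chicken nucleosomes; input: 240 nM purified chicken nucleosomes (480 nM peptide binding sites), final; also added: 50 nM FITC-LANA1-23 probe; medium: TEN-BT buffer, pH 7.5; doses: pin-transferred compound, 100 nL; times: 10–45 min, room temperature; technique: fluorescence polarization; replication: duplicates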
BasE inh – BasE siderophore enzyme inhibitors, primary screen, biochemical, Acinetobacter baumannii ATCC 17978, fluorescence polarization | purified BasE, fluorescence polarization binding displacement | inhibition, % (no concentration beside the values) | 0.1% of 84,000 active | AID 485350, 2010;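 active means both replicates above 25% with normal brightness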;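 further: 0% = negative plate control signal and 100% = positive plate control signal; stock transfer was 100 nL into about 30 µL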
* = called active by the depositor; · = no result given; & = joins results of further samples. This is a subset (hit frequency here may not be typical).

| SMILES | KSHV LANA nucl | BasE inh |
| --- | --- | --- |
| Cc1cc(N(Cc2cccc(Cl)c2Cl)C(=O)c2ccccc2)no1 | · | -0.2 |
| CCn1c(=NC(=O)C2COc3ccccc3O2)sc2cccc(F)c21 (configuration not stated) | -1.4 | 1.6 |
| c1n[nH]c(SCc2cn3ccsc3n2)n1 | · | 3.9 |
| CCc1nnc(NC(=O)[C@@H]2CCCN2C(=O)c2cccs2)s1 | · | 0.6 |
| COc1cccc(/C=N/NC(=O)c2ccoc2C)c1 | 0.29 | 0.6 |
| CC1=C(C(=O)O)SC2=NCCCCN21 | -0.077 | -0.1 |
| CC(C)n1nnc(CC(=O)O)n1 | 1.7 | -4.1 |
| Cc1ccccc1-n1nnnc1SCC(=O)N1CCCc2ccccc21 | · | -0.4 |
| CN1C(=O)c2ccc(C(=O)NCCCn3ccnc3)cc2C1=O | -1.7 | 2.4 |
| COCCNC(=S)N1CCN(c2ccc(S(=O)(=O)N3CCCC3)cc2)CC1 | -0.46 | 4.4 |
| CC(C)C(NC(=O)c1ccccn1)c1ccc2c(c1)OCCCO2 (configuration not stated) | · | -1.4 |
| O=C1C(c2ccncc2)=C(O)c2ccccc21 | -0.024 | 0.8 |
| O=C(C1CCN(S(=O)(=O)Cc2ccccc2)CC1)N1CCCc2ccccc21 | 0.74 | -1.2 |
| CC1(C)c2ccccc2-n2c1cc1oc(=O)cc(O)c1c2=O | 0.92 | 2.8 |
| Cc1cnc2c(c1SCC(=O)NCc1ccc3c(c1)OCO3)c(=O)n(C)c(=O)n2C | -0.63 | 0.8 |
| Nc1ccc(S(=O)(=O)Nc2ccccc2)cc1 | · | -0.8 |
| O=C(C1=COCCO1)N1CCN(C(c2ccccc2)c2ccccc2)CC1 | · | -3.5 |
| CCn1c(SCC(=O)Nc2ccccc2C(=O)NC2CC2)nc2cc(S(N)(=O)=O)ccc21 | · | -11 |
| CNC(=S)Nc1ccc2[nH]c(=O)[nH]c2c1 | · | 1.5 |
| S=C(NCC1CCCO1)SCc1cn2cccnc2n1 (configuration not stated) | · | 1.6 |
| O=C(OC1CCOC1=O)C1CCN(S(=O)(=O)c2ccccc2)CC1 (configuration not stated) | · | 0.8 |
| O=S(=O)(c1ccc(N(C(F)F)S(=O)(=O)c2ccc(Cl)cc2)cc1)N1CCOCC1 | -0.63 | -1.7 |
| NCCC(=O)N1CCCC1 | · | -1.8 |
| Cc1cc(N2CCN(c3ccccc3)CC2)nc2cc(Cl)ccc12 | -0.31 | 1.0 |
| O=C(c1ccco1)N1CCN(Cc2ccc(F)cc2)CC1 | 0.53 | 0.0 |
| O=C(O)c1cccc(Nc2nc(-c3ccccc3)c3ccccc3n2)c1 | · | 2.7 |
| Brc1c(-c2ccccc2)nc2n1-c1ccccc1C2 | 0.95 | -0.3 |
| O=C(COc1c(-c2ccccc2)oc2ccccc2c1=O)N1CCOCC1 | 0.42 | -1.7 |
| O=C(NC1CC2CCC1C2)c1ccc(CN2CCN(c3ccccc3)CC2)cc1 (configuration not stated) | -0.26 | 0.2 |
| COc1cc(NS(=O)(=O)c2ccc(N3C(=O)c4ccccc4C3=O)cc2)nc(OC)n1 | -1.4 | 3.2 |
| Cc1ccnc(SC2CC(=O)N(c3ccc(C)c(C)c3)C2=O)n1 (configuration not stated) | 0.87 | -1.8 |
| NNC(=O)CNC(=O)c1cc(Cl)ccc1Cl | -0.5 | 0.5 |
| CN(C)CP(=O)(O)CCc1ccccc1 | -0.22 | 1.7 |
| O=C(NCC(c1cccs1)N1CCOCC1)Nc1ccccc1Cl (configuration not stated) | · | -0.2 |
| O=C(Cn1ncc2c3ccccc3n(Cc3cccc(Cl)c3)c2c1=O)N1CCCC1 | 2.8 | -23 |
| CCOc1ccccc1NCC(=O)Nc1ccccc1C#N | · | 1.7 |
| Cn1ncc(C(C#N)c2nc3ccccc3s2)c(Cl)c1=O (configuration not stated) | · | 1.7 |
| O=C(CNc1ncnc2ccccc12)OCCOc1ccccc1 | · | -0.8 |
| O=C(CCc1nnc2ccc(NCc3ccco3)nn12)Nc1cccnc1 | -0.6 | 0.4 |
| Nc1n[nH]c(C(F)(F)C(F)(F)C(F)(F)F)n1 | -0.42 | -0.2 |
| CC1CCCCN1C(=O)CSc1nnc(NCc2ccccc2)s1 (configuration not stated) | · | 0.1 |
| Oc1ccc(CN2CCCC2)c2cccnc12 | · | 0.8 |
| CC1SC(=Nc2ccc(S(=O)(=O)N3CCOCC3)cc2)NN=C1C12CC3CC(CC(C3)C1)C2 (configuration not stated) | · | -0.1 |
| CC1CN(C(=O)c2cc3c(s2)CCCC3)CC(C)O1 (configuration not stated) | · | 1.2 |
| N#C/C(=C\c1ccc2c(c1)OCO2)C(=O)Nc1ccc(-c2nnc3n2CCCCC3)cc1 | · | 0.6 |
| COc1ccc(C(=O)Oc2ccc(/C=N/N=C3\NC(=O)CS3)cc2OC)cc1 | -0.54 | 0.8 |
| CC1CC(C)CN(S(=O)(=O)c2ccc(NC(=O)c3ccc(C#N)cc3)cc2)C1 (configuration not stated) | · | 2.2 |
| Cc1[nH]c2ccccc2c1SCC(=O)N1CCCCC1 | 0.73 | -0.1 |
| Cc1ccc(S(=O)(=O)N(C)CC(=O)OCc2nc3ccc(Cl)cc3n2CCO)cc1 | · | 2.2 |
| OCc1ccc(-c2cccc(Cl)c2)o1 | -0.73 | -2.1 |
| CC(C)Cn1cc(NC(=O)N2CCCCCC2)c2ccccc2c1=O | · | 1.8 |
| CCCN(CCC)C(=O)c1ccc(Cl)c(Cl)c1 | -0.72 | -1.7 |
| CCCCn1c(/N=C/c2c[nH]c3ccccc23)nc2ccccc21 | · | 1.4 |
| COc1ccccc1-c1noc(CCC(=O)Nc2ccccc2C(F)(F)F)n1 | 0.37 | 1.0 |
| CSc1ccc(/C=C2\SC(N)=NC2=O)cc1 | · | 0.4 |
| CC(=O)Nc1nc(COC(=O)CNC(N)=O)cs1 | · | 1.5 |
| CCOC(=O)c1sc(N)c(C#N)c1COC(=O)c1cccc(OCc2c(C)noc2C)c1 | · | -49 |
| CCN(C(=O)CSC1=N/C(=C\c2ccco2)C(=O)N1c1ccc(OC(F)F)cc1)C1CCS(=O)(=O)C1 (configuration not stated) | · | 2.1 |
| N#CCOc1ccc2oc(-c3ccccc3)cc(=O)c2c1 | 0.99 | 0.2 |
| Cc1ccc(SCc2cc(=O)n3c(nc4ccccc43)[nH]2)cc1 | -0.75 | -2.2 |

New compounds follow
Structure	KSHV LANA nucl	BasE inh
Cc1nc2ccc(C(=O)OCC(=O)Nc3cccnc3Cl)cc2nc1C	·	13
COC(=O)c1ccc(NC(=O)CSc2nnc(-c3ccccc3Cl)n2N)cc1	-0.42	4.0
O=C(CNc1cccc(C(F)(F)F)c1)N/N=C1\CC2CC=CC12 (configuration not stated)	·	0.7
CN(C)CCC(=O)N1c2ccccc2Sc2ccc(C(F)(F)F)cc21	·	2.4
O=C(NCCN1CCCCC1)c1ccc(-c2ccccc2)cc1	0.16	-9.2
CC(NC1CC1)C(=O)N1CCN(C(=O)c2ccco2)CC1 (configuration not stated)	·	3.0
COc1ccc(S(=O)(=O)N(C)c2ccnc(C(=O)N3CCCCC3)c2)cc1	-1.5	0.2
CC1CCN(S(=O)(=O)c2ccc3c(c2)oc(=O)n3C)CC1	0.42	-0.6
O=C(O)/C(=C\c1ccccc1)NC(=O)c1ccccc1	-0.062	2.8
CC(C)Nc1nc(-c2ccccc2)nnc1-c1ccccc1	0.78	·
Cc1ccc2[nH]c(C)c(CN3CC(C)OC(C)C3)c(=O)c2c1 (configuration not stated)	0.15	1.2
CN(C)/C=C1\OC(=O)c2ccccc21	0.6	·
O=C(c1ccco1)N1N=C(c2c(-c3ccccc3)c3cc(Cl)ccc3[nH]c2=O)CC1c1ccco1 (configuration not stated)	0.012	1.9
NS(=O)(=O)c1ccccc1NC(=S)Nc1ccccc1S(N)(=O)=O	0.98	-1.5
CC(C)(O)CNS(=O)(=O)c1ccccc1	·	1.2
COc1ccc2cc(C(=O)NCC(=O)O)sc(=O)c2c1OC	-0.14	-0.1
Cc1cc(Nc2ccc(S(=O)(=O)N3CCOCC3)cc2)c2ccc(C(F)(F)F)cc2n1	0.29	0.7
O=C(CN1CCCC1)N/N=C/c1c(O)ccc2ccccc12	0.066	-3.1
CCNC(=O)CNCc1c(C)nn(CC(C)C)c1Cl	·	-4.9
CCN1C(=O)C(=Cc2ccc(N3CCCC3)cc2)C(=O)N(CC)C1=S	0.61	-1.2
CCCc1ccc(OC(=O)c2ccc(O)cc2Cl)cc1	·	0.5
O=C1c2ccccc2C(=O)N1CC(O)COC1CCCCC1 (configuration not stated)	-0.66	0.4
NC(N)=NS(=O)(=O)c1ccc(N/C=C2/CCc3ccccc3C2=O)cc1	0.55	2.5
CSc1nc2c(cc1C#N)CCC2	0.63	-2.1
COc1ccccc1NC(=O)CC1S/C(=N\N=C(/C)c2ccccc2)NC1=O (configuration not stated)	-0.017	0.2
COc1ccc(Cl)cc1C(=O)NCCc1ccc(S(=O)(=O)NC(=O)NC2CCCCC2)cc1	0.019&-0.17&0.52&0.83&-0.19	2.2&-0.2&-1.7
COCCN(Cc1cc2ccc(C)cc2[nH]c1=O)C(=O)c1ccccc1	-0.88	-0.2
C1CNC(C23CC4CC(CC(C4)C2)C3)=N1	-0.46	2.1
C#CC(CC)(CC)NC(=O)c1ccc(Cl)cc1	·	-0.2
O=C(CCS(=O)(=O)Cc1ccccc1)NCc1ccc2c(c1)OCO2	2.2	-3.1
CN(C)C(CNC(=O)c1n[nH]c(=O)c2ccccc12)c1ccccc1 (configuration not stated)	·	3.7
CC(C)N(Cc1nc2ccccc2c(=O)[nH]1)C(=O)Cc1ccc(S(=O)(=O)N2CCOCC2)s1	·	4.0
O=C(Nc1ccc(S(=O)(=O)NCCc2ccccc2)cc1)C1c2ccccc2Oc2ccccc21	·	2.5
NC(=O)c1cc(Cl)nc2ccccc12	0.26	2.5
C=CCN1C(=O)CSC1=Nc1ccc(NC(C)=O)cc1	·	-0.5
Cc1nc(Cc2n[nH]c(=S)o2)cs1	·	1.6
CCc1nc(Cl)c(C#N)c2c1CCCC2	·	0.2
CCc1ccc(NC(=S)NNC(C)(C)C)cc1	-0.12	1.9
CCOC(=O)c1cnc2c(c(C3CC3)nn2C)c1N1CCOCC1	·	-4.0
CN(C(=O)Nc1ccccc1)C1CCCCC1	·	1.5

An excerpt from above in order of molar mass, highest first:
Structure	KSHV LANA nucl	BasE inh
COc1ccc(Cl)cc1C(=O)NCCc1ccc(S(=O)(=O)NC(=O)NC2CCCCC2)cc1	0.019&-0.17&0.52&0.83&-0.19	2.2&-0.2&-1.7
NC(N)=NS(=O)(=O)c1ccc(N/C=C2/CCc3ccccc3C2=O)cc1	0.55	2.5
CN(C)C(CNC(=O)c1n[nH]c(=O)c2ccccc12)c1ccccc1 (configuration not stated)	·	3.7
CCOC(=O)c1cnc2c(c(C3CC3)nn2C)c1N1CCOCC1	·	-4.0
O=C1c2ccccc2C(=O)N1CC(O)COC1CCCCC1 (configuration not stated)	-0.66	0.4
CCc1nc(Cl)c(C#N)c2c1CCCC2	·	0.2
CSc1nc2c(cc1C#N)CCC2	0.63	-2.1

Further structures follow.
Structure	KSHV LANA nucl	BasE inh
CCSC1=N/C(=C\c2ccc(C(=O)O)cc2)C(=O)S1	·	0.0
O=c1c2ccccc2c(/C=N/NS(=O)(=O)c2ccccc2)c(O)n1-c1ccccn1	·	-36
COC(=O)c1cc(=O)n2c(c1C(=O)c1ccc(Cl)cc1)SCC2	·	-2.5
CCCc1cc(=O)n2nc(N3CCC(C(=O)NCC)CC3)sc2n1	-1.6	-1.0
O=c1c2ccccc2nc(SCc2ccccc2)n1CCCO	·	0.4
O=C(c1ccccc1)n1sc(=O)c2ccccc21	-0.17	-0.8
N[C@@H](CCC(=O)N[C@@H](CS)C(=O)NCC(=O)O)C(=O)O	-0.84	-1.1
C=CCSc1snnc1-c1ccc(Cl)cc1	-0.28	·
CCOC(=O)c1[nH]c(C)c(C(=O)N(Cc2ccccc2)C(C)C)c1C	0.2	-0.7
O=C(CN1CCN(S(=O)(=O)c2ccc(Cl)cc2)CC1)N(C1CCCCC1)C1CCS(=O)(=O)C1 (configuration not stated)	·	1.8
COc1ccc(S(=O)(=O)c2ccc(OC)cc2)cc1	·	0.4
N#Cc1ccsc1NC(=O)CCN1CCN(S(=O)(=O)c2ccc3c(c2)OCCCO3)CC1	·	0.5
CC1CCN(CC(O)CN2c3ccccc3Sc3ccccc32)CC1 (configuration not stated)	-0.28	1.3
CC(=O)N1c2ccccc2C(CSc2nnc(-c3ccccc3)o2)=CC1(C)C	·	3.4
COc1ccc(CNC(=O)C2CCCCC2C(=O)N2CCc3ccccc32)cc1OC (configuration not stated)	·	1.0
CCCCn1nc(C(=O)N(C)Cc2cc(Br)ccc2OC)ccc1=O	·	0.0
Cc1ccc(S(=O)(=O)N2CCC(C(N)=O)CC2)cc1C	-0.3	0.1
Cc1cc2c(cc3c(SCC(=O)Nc4ccc(Cl)cc4F)nnc(C)n32)o1	1.3	-1.6
Cc1cc(C(=O)COC(=O)c2ccccc2)c(C)n1-c1nccs1	·	-3.7
O=C(NCC1CCCN1S(=O)(=O)c1ccccc1)c1ccccc1 (configuration not stated)	-1.1	0.4
COc1cccc(C2C3=C(CC(C)(C)CC3=O)Nc3cc4c(cc32)OCO4)c1 (configuration not stated)	0.52	0.6
COc1ccc(-c2csc(=Nc3ccccc3)n2C)cc1	0.33	-2.1
CC(C)(C)NC(=O)Nc1cccc2ccccc12	0.02	1.3
CCOC(=O)c1c(C)[nH]c2c1cc(O)c1ccccc12	-0.77	2.9
NC(N)=NC(N)=NCCc1ccccc1	-0.11&-1.6	1.0
